VDR inhibitor – Inhibitors of the vitamin D receptor (VDR): qHTS. Vitamin D3 receptor (Homo sapiens), P11473. VDR-SRC2-3 peptide fluorescence polarization, 2 h. Potency, µM, inactives show max response, negative = inhibition, actives largely listed as inhibitors. actives 0.93% (n = 400,000). AID 504847, 2011; active means well fitted inhibition curve with a large enough effect; inconclusive means small, poorly fitted or top-dose-only effect, or another doubt; inactive means no such curve, though single readings can be large or run the other way; further: series mostly up to about 120 µM
Target sequence (P11473 whole entry, looked up): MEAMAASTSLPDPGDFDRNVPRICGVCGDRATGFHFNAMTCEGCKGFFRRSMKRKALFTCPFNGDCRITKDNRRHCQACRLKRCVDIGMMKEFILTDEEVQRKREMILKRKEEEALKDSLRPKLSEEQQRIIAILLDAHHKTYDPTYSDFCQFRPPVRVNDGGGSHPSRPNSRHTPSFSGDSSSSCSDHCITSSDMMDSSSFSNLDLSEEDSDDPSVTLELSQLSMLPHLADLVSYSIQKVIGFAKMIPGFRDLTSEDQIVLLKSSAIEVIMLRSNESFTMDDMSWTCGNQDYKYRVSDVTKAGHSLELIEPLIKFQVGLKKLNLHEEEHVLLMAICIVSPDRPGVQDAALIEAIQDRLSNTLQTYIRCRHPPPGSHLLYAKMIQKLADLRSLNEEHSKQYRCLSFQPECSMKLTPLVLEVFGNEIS
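Inhibition of the VDR/SRC2-3 peptide interaction is quantified by fluorescence polarization. Compounds (23 nl, pintool) incubate with the reagents for 2 hours at ambient room temperature.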
* = called active by the depositor; ? = inconclusive. On the % scale 0 is the no-effect control and ±100 the full control effect; potency means the concentration at half of the fitted maximal effect. An excerpt, so the mix of outcomes need not match the whole.

mol,VDR inhibitor
COc1cc(-c2noc(CCCC(=O)Nc3ccc(C(N)=O)cc3)n2)cc(OC)c1OC,-17%
O=C(CCC(=O)N1CCN(S(=O)(=O)c2ccc(Cl)cc2)CC1)NC1CCCc2ccccc21 (stereo not given),1%
Cc1nnc(NC(=O)CSc2nc3c([nH]c4ccccc43)c(=O)n2-c2ccccc2)s1,1%
O=Cc1cc(Cl)ccc1OCCN1CCC(Cc2ccccc2)CC1,-1%
Cc1ccc(-n2c(C)cc(C(=O)OCC(=O)N(C)C3CCS(=O)(=O)C3)c2C)cc1 (stereo not given),5%
CCOC(=O)C1CCN(c2ccc([N+](=O)[O-])c(C(C)=O)c2)CC1,3%
O=C(c1cc2ccc3cccnc3c2[nH]1)N1CCN(c2cccc(Cl)c2)CC1,14%
O=C(Nc1ccccc1N1CCCC1)c1cccc(-c2cc3ccccc3oc2=O)c1,-11%
Cc1nc2nc(SCC(=O)Nc3cccc(F)c3)[nH]c2cc1Br,1%
Cc1ccc(C)c(NC(=O)C(OC(=O)c2ccc(C)s2)c2ccccc2)c1 (stereo not given),20%
Cc1nn(-c2ccccc2)cc1/C=N/O,-5%
Cc1nnc(C)c2c(C)n(Cc3ccc4c(c3)OCO4)c(C)c12,-5%
O=C(CSc1nccn1-c1ccc(Cl)cc1)Nc1nc2ccccc2s1,-5%
CC(C)=CC(=O)N1CCCc2ccccc21,-7%
O=C(CCN1CCCCC1)Nc1ccc(Br)cc1,-2%
O=C(CN1CCN(C(=O)CNC(=O)c2ccc3c(c2)OCO3)CC1)Nc1cccc(F)c1,-6%
O=C(CCc1nc(-c2ccccc2Cl)no1)NCC1CCCO1 (stereo not given),16%
COc1ccc(NC(=O)c2ccc3c(c2)OCO3)cc1[N+](=O)[O-],-7%
CC(C)N(Cc1ccccc1)C(=S)NC(=O)C1(C)CC1(Cl)Cl (stereo not given),10%
CC(C)Nc1nnc(SC(C)C(=O)Nc2ccc(N3CCOCC3)cc2)s1 (stereo not given),?
COc1ccc(-n2nnc3c(=O)n(C/C=C/c4ccccc4)cnc32)cc1,11%
COc1ccc2c(c1)CC[C@@H]1[C@@H]2CC[C@]2(C)[C@@H](C(=O)O)C[C@@H]12,-8%
O=C(OCCO)c1cc(Cl)c(C(=O)OCCO)cc1Cl,-9%
COc1cccc2ccc(/C=C/c3ccc4c(c3)OCO4)nc12,1%
CC(=O)N1CCN(c2ccc(NCc3ccc(C)s3)cc2)CC1,?
CCc1ccc(/C=N/NC(=O)Cc2cccn2C)cc1,-6%
Cc1onc(C(=O)NN)c1C(=O)Nc1ncc(C(F)(F)F)cc1Cl,1%
COc1ccc(NC(=O)CCCc2ccccc2)cc1OC,-1%
COc1ccc(/C=N/NC(=O)c2cccc(NC(C)=O)c2)c(C(=O)O)c1OC,11%
CCOCCCNc1nc2c(C)cccn2c(=O)c1/C=C1\SC(=S)N(CC(C)C)C1=O,-8%
CC[C@H](C)[C@H](NC(=O)[C@H](Cc1ccc(O)cc1)NC(=O)[C@@H](NC(=O)[C@H](CCCN=C(N)N)NC(=O)[C@@H](N)CC(=O)O)C(C)C)C(=O)N[C@@H](Cc1ccc(N)cc1)C(=O)N1CCC[C@H]1C(=O)N[C@@H](Cc1ccccc1)C(=O)O,5%
C=CCn1c(SCC(=O)Nc2ccc(N3CCOCC3)cc2)nc2ccccc2c1=O,14%
O=C(NCc1ccco1)c1ccccc1NC(=O)C1CC(=O)N(c2ccc(Cl)cc2)C1 (stereo not given),-5%
COc1ccccc1CNC(=O)CNC(=O)c1sc2ccccc2c1Cl,16%
Cc1nc(NCc2ccco2)c2c(C)c(C)sc2n1,1%
Cc1ccc(C)c(NC(=O)C(c2ccccc2)N2CCN(CC(=O)NC3CC3)CC2)c1 (stereo not given),-11%
Cc1cccc(NC(=O)CNC(=O)C(NC(=O)Cc2ccccc2)C(C)C)c1C (stereo not given),-10%
Cc1ccc(-c2nc3ncccc3o2)cc1NC(=O)c1ccc2c(c1)OCO2,-5%
CCN(CC(=O)NCc1cccs1)C(=O)CCCOc1ccc(C(C)(C)C)cc1,-7%
CCOC(=O)C(Cc1ccccc1)NC(=O)CNC(=O)CNC(=O)OCc1ccccc1 (stereo not given),-6%
CCCCN(C)S(=O)(=O)c1cc2c(cc1Br)CCN2C(=O)C1CC1,8%
Cc1ccc(NS(=O)(=O)c2cc3[nH]c(=O)c(=O)[nH]c3cc2C)c(C)c1,-11%
Cc1ccc(-c2cc(C(=O)N/N=C/c3ccco3)[nH]n2)cc1,-3%
Cc1cc([N+](=O)[O-])nn1CCCC(=O)Nc1sc2c(c1C(N)=O)CCC(C)C2 (stereo not given),14%
O=C(CCCOc1ccccc1)NNC(=O)c1ccc(Cl)cc1,6%
C/C(=N\OCc1ccc(C#N)cc1)c1ccccc1,0%
CC(Sc1nnc2c(n1)C1(C)CCC2C1(C)C)C(=O)Nc1ccccc1 (stereo not given),-5%
O=C(O)c1ccc(CS(=O)(=O)c2ccc(Br)cc2)cc1,-17%
COc1ccc(-n2nc(C(=O)NCC(=O)N3CC(C)CC(C)C3)c3ccccc3c2=O)c(OC)c1 (stereo not given),-3%
Cn1c(C(=O)N2CCCC(C(=O)NCCN3CCOCC3)C2)cc2sccc21 (stereo not given),5%
COc1cc(-c2nc(C(F)(F)F)c(OC)o2)cc(OC)c1OC,-18%
Cc1ccccc1-c1nnc(SCC(=O)N2CCCC2)o1,-2%
O=C(COC(=O)c1ccc(S(=O)(=O)N2CCCCC2)cc1)NCc1ccco1,2%
CN(C)CCC(=O)c1ccc(Cl)cc1,-24%
CSc1nc(N2CCOCC2)c2sccc2n1,-20%
Cc1nn(CC(=O)Nc2ccc3c(c2)OCCO3)c(C)c1[N+](=O)[O-],7%
CC(C)N(CCn1c(=S)[nH]c2ccccc2c1=O)C(C)C,6%
CCOC(=O)c1c(CC(C)C)csc1/N=C/C1C(=O)CCCC1=O,25%
Cc1ccc(-c2nc3cccnc3s2)cc1NS(=O)(=O)c1ccc2c(c1)CCCC2,-22%
Cc1c(-c2ccccc2)c(=O)oc2ccc(OC(=O)N3CCOCC3)cc12,-12%

Next entries
mol,VDR inhibitor
CC(=O)Nc1ccc(N=Nc2ccccc2)cc1[N+](=O)[O-],?
CCN1C(=O)C(=O)N(Cc2ccc(OC)c(F)c2)C1=O,1%
Cc1cc(C)n2nc(SCC(=O)N(CCC#N)c3ccccc3F)nc2n1,-9%
COc1c(F)c(F)c(C(=O)Nc2ccc(N3CCN(C(C)=O)CC3)c(Cl)c2)c(F)c1F,6%
CCC1(C)Cc2c(C#N)c(SC)nc(N3CCOCC3)c2CO1 (stereo not given),7%
Cc1cc(C(C)(C)C)oc1C(=O)NCCCNC(=O)c1oc(C(C)(C)C)cc1C,13%
O=C(O)Cc1ccc(NC(=O)COc2ccc3ccccc3c2)cc1,7%
CCN1CCN(C(=O)Cn2ncc3c2-c2ccccc2OC3)CC1,-10%
C=C(C)c1cccc(C(C)(C)NC(=O)N2CCN(c3ncccn3)CC2)c1,9%
Cn1c(=O)c(=O)n(C)c2cc(S(=O)(=O)N3CCCC3C(=O)NCc3ccco3)ccc21 (stereo not given),-11%
Cc1csc(Nc2cccc3ccccc23)n1,-17%
O=C1C2C(c3ccccc3)C=CC(c3ccccc3)C2C(=O)N1CCCO (stereo not given),-6%
N#CC1=C(N)Oc2c(oc(CO)cc2=O)C1c1ccsc1 (stereo not given),-12%
O=C1c2cccnc2C(Nc2ccc(S(=O)(=O)N3CCCCCC3)cc2)N1Cc1ccccc1 (stereo not given),-7%
CC1(C)CC(NC(=O)C(C)(C)Oc2ccc(Cl)cc2)CC(C)(C)N1,3%
COc1ccc(C(=O)O)cc1S(=O)(=O)Nc1ccccc1-c1ccccc1,-23%
Oc1cccc(Nc2c3ccccc3nc3ccccc23)c1,-9%
O=C1COc2ccc(C(=O)CSc3ccc(Br)cc3)cc2N1,?
CCOC(=O)C1CC2=C(CC(C)(C)CC2=O)N(CCOC)C1=O (stereo not given),4%
Cc1cc(C)cc(N=Cc2ccc([N+](=O)[O-])s2)c1,-15%
CC(C)CC(=O)Nc1nnc(SCC(=O)Nc2ccc3c(c2)OCO3)s1,-13%
COc1ccc(NC(=O)c2cnn(-c3ccccc3)c2C)c(OC)c1,-8%
CN(C)c1ccc(C(=O)NCC(c2cccs2)N2CCOCC2)cc1 (stereo not given),8%
O=C1Cc2cc(S(=O)(=O)Nc3ccccc3Cl)cc3c2N1CCC3,-2%
CCOc1ccccc1C1CC(=O)NC(C)=C1C(=O)OC1CCCCCC1 (stereo not given),-22%
Cc1cc(C)c(Nc2cc(S(=O)(=O)O)c(N)c3c2C(=O)c2ccccc2C3=O)c(C)c1,?
Cc1cc(CNC(=O)c2cc(Br)ccc2Cl)nn1C,8%
COc1ccc2c(CC(=O)Nc3ccccc3N3CCOCC3)coc2c1,0%
O=C(Cn1c(C(=O)N2CCc3ccccc3C2)cc2sccc21)c1ccccc1,5%
Cc1onc(-c2ccccc2)c1-c1n[nH]c(=S)n1-c1ccccc1,9%

Four entries from above, as labelled records.
> O=C1COc2ccc(C(=O)CSc3ccc(Br)cc3)cc2N1
  VDR inhibitor: ?

> Cc1cc(C)c(Nc2cc(S(=O)(=O)O)c(N)c3c2C(=O)c2ccccc2C3=O)c(C)c1
  VDR inhibitor: ?

> O=C(Cn1c(C(=O)N2CCc3ccccc3C2)cc2sccc21)c1ccccc1
  VDR inhibitor: 5%

> CN(C)c1ccc(C(=O)NCC(c2cccs2)N2CCOCC2)cc1 (stereo not given)
  VDR inhibitor: 8%

New compounds follow:
mol,VDR inhibitor
Cc1nnc(NC2CCCCC2)[nH]c1=O,12%
CC1CCc2c(sc(NC(=O)COc3ccccc3C(C)(C)C)c2C#N)C1 (stereo not given),?
CCOC(=O)N1CCN(S(=O)(=O)N2CCCC(C(=O)NCCCN3CCCCC3CC)C2)CC1 (stereo not given),5%
CCCCn1c(SCC(=O)N2CCCC2)nnc1-c1ccccc1,-5%
COc1ccc(Cl)cc1NC(=O)NNC(=O)c1ccccn1,-7%
CN(CCc1ccccc1)C(=O)CCc1nnc(Cc2ccc3c(c2)OCO3)o1,3%
Cc1ccc(NC(=O)C2CCCN(C(=O)c3ccc(Cl)cc3)C2)cc1S(=O)(=O)N1CCOCC1 (stereo not given),2%
C/C(CC(=O)Nc1cccc(Cl)c1Cl)=N\NC(=O)c1ccccc1N,0%
O=C(c1cn(-c2ccccc2)nc1-c1ccc(Cl)s1)N1CCOCC1,-3%
CCOC(=O)C1CCCCN1Cc1cccc(OC)c1OC (stereo not given),-21%
O=C(O)c1ccccc1C(=O)Nc1ccc(Br)c(C(F)(F)F)c1,1%
COC(=O)c1ccc(/C=C/c2c(-c3ccsc3)sc3ccccc23)cc1,?
COCCn1c(SCC(=O)Nc2ccc(C(N)=O)cc2)nc2c([nH]c3ccccc32)c1=O,27%
CC(/C=N/NC(=O)CNc1n[nH]c(=O)[nH]c1=O)c1ccccc1 (stereo not given),-6%
Cc1ccccc1Nc1nc(N)nc(CN2CCN(C(=O)c3ccccc3)CC2)n1,-15%
CCCCN1C(=N)N([C@@H](C)CN2CCC[C@H]2CN2C(N)=NC[C@@H]2Cc2ccccc2)C[C@H]1[C@H](C)CC,2%
COc1ccc2cc(C(=O)CS(=O)(=O)c3ccccc3)c(=O)oc2c1,-9%
O=C(NNS(=O)(=O)c1ccccc1[N+](=O)[O-])c1ccc(O)cc1,-4%
Cc1c(C(=O)NNC(=O)c2ccncc2)oc2ccccc12,-11%
NC(=O)CC(NC(=O)c1ccc(Br)cc1)c1ccc(NCc2ccc(F)c(F)c2)c([N+](=O)[O-])c1 (stereo not given),11%
Cc1cc(NC(=O)CSc2nc3c(C)ccc(C)c3cc2C#N)no1,14%
O=C(CCNS(=O)(=O)c1ccccc1)OCC(=O)c1ccc(Br)cc1,-20%
CN1CCN(C2=CC(=O)OC23CCCCC3)CC1,4%
O=C(c1ccccc1)N1CCCN(c2nccc(C(F)(F)F)n2)CC1,-7%
Cc1onc(-c2ccccc2)c1C(=O)NC1C(=O)N2C(C(=O)O)C(C)(C)S[C@@H]12 (stereo not given in full),-3%
Cc1cc(NCCN2CCOCC2)n2nc(C)c(-c3ccc(Cl)cc3)c2n1,3%
CC(NC(=O)C12CC3CC(CC(C3)C1)C2)c1ccc2c(c1)OCCO2 (stereo not given),14%
Cc1ccc(NC(=O)CSc2nnc(CNC(=O)c3cccs3)o2)cc1,2%

Four of the entries above in order of their number in VDR inhibitor, low to high.
| SMILES | VDR inhibitor |
| --- | --- |
| COc1ccc(Cl)cc1NC(=O)NNC(=O)c1ccccn1 | -7% |
| Cc1onc(-c2ccccc2)c1C(=O)NC1C(=O)N2C(C(=O)O)C(C)(C)S[C@@H]12 (stereo not given in full) | -3% |
| Cc1nnc(NC2CCCCC2)[nH]c1=O | 12% |
| CC(NC(=O)C12CC3CC(CC(C3)C1)C2)c1ccc2c(c1)OCCO2 (stereo not given) | 14% |

Source: PubChem BioAssay (National Center for Advancing Translational Sciences (NCATS))
